Source: PubChem
RanGTP-Imp inh: disruptors of Ran-importin-beta complex formation – biochemical, FRET, CFP-Ran, YFP-importin-beta, homogeneous, primary screen; cell-free CFP-Ran/YFP-importin-beta FRET ratio; inhibition, % (concentration not given with the values); 300,000 tested, 1.1% active; AID 2216;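 active = most replicates above 15%; inconclusive = exactly half above 15%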;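 note: 0% = DMSO wells and 100% = Ran loaded with GDP instead of GTP; wells of about 40 µL received 100 nL stock; the first replicate is given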
Beta2AR agonist: agonists of human beta-2 adrenergic receptor inducing internalization; P07550; Am2.2-beta2AR cells, FAP receptor internalization, flow cytometry; reference of the scale not given here; response, % (test concentration not listed); 340,000 tested, 0.43% active;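 active = response above a set limit, near 3 SD of response in nonfluorescent compounds, cut at about 42% in these data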;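 note: stock transfer was 100 nL into about 11 µL; a reference agonist was the positive control; negative values mostly stem from fluorescent compounds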
Vif A3G: inhibitors of Vif binding to APOBEC3G peptide, primary screen, biochemical, TR-FRET, GST-Vif 1-94, biotin-A3G peptide, dose response retest (AID 1117319); 260,000 tested, 0.57% active; TR-FRET GST-Vif / biotin-A3G peptide binding; higher % means a stronger effect; test concentration not given here; strong numbers were not always called active; inhibition, %; hits with a dose series show IC50 in µM;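 active = above the screen mean plus three standard deviations and confirmed in dose response; inconclusive = results disagree or hit not tested in dose response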;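 note: Vif residues 1-94 fused to GST binding biotinylated APOBEC3G peptide 110-148; 0% = full assay without inhibitor and 100% = GST in place of GST-Vif; retest series ran down from 100 µM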
Calb FLC: affects C. albicans growth with fluconazole; C. albicans CaCi-2 (fluconazole-resistant clinical isolate) + fluconazole, Alamar Blue growth, 48 h; growth inhibition, % (no concentration beside the values); 300,000 tested, 0.57% active; AID 1979;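 active = most replicates above 75%; inconclusive = exactly half above 75%; inactive = most below 75%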;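 note: all wells also contain fluconazole at 8 µg/ml as a sub-toxic cotreatment; 0% = median of DMSO wells and 100% = median of geldanamycin control wells; wells of about 8 µL received 7.5 nL stock; the first replicate is given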
HNF4A DNA FP: change in binding of human HNF4 alpha to DNA | 360,000 tested, 0.3% active | activity change, % at 10 µM | HNF4a-FITC DNA binding, fluorescence polarization, 1 h; in the data active = activity change above about 30%, passing the limit was not always enough;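 note: controls were the assay level and a saturating level of protein; the project sought stronger binding though the title names inhibitors; some compounds called inactive have numbers as strong as hits; positive values seem to mean higher polarization but the record does not say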
Target sequence (P41235 whole entry, looked up): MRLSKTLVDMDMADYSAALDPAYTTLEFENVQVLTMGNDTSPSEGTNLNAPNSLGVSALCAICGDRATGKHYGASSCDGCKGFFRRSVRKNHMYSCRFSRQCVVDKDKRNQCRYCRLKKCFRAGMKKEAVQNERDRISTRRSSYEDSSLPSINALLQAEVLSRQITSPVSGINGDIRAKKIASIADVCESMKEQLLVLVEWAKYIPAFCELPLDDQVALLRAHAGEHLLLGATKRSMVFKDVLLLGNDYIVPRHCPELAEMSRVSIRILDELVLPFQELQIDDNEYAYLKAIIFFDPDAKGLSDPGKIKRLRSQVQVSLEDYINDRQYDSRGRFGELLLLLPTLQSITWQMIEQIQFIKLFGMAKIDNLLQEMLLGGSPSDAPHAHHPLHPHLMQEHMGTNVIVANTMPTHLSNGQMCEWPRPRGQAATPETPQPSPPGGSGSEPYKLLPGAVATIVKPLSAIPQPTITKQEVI
ALR H2O2 inh: blocks human ALR sulfhydryl oxidase activity | inhibition, % (no concentration beside the values) | purified ALR, DTT oxidation, H2O2 HRP-luminol luminescence | 290,000 tested, 3.8% active | AID 485317;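 active = mean and each replicate at 75% or more; inconclusive = only one of the two met; inactive = neither met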;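 note: stock transfer was 7.5 nL into about 7.5 µL; 0% = neutral wells and 100% = wells with inactivated enzyme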
Target sequence (P55789 whole entry, looked up): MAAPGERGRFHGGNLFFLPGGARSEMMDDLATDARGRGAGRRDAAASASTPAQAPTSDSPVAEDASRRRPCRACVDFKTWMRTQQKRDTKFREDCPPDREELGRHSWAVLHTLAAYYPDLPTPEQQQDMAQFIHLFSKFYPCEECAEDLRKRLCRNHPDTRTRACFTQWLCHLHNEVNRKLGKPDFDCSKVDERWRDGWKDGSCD
LANA-H2A inh: blocks KSHV LANA binding to histone H2A/H2B; cell-free LANA-H2A/H2B peptide, fluorescence polarization; inhibition, % (test concentration not listed); 320,000 tested, 0.6% active; in the data active = inhibition mostly above about 10%, no sharp cut-off; inactive = mostly below about 6.7%;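 note: stock transfer was 7.5 nL into about 10 µL; 0% = median of vehicle wells and 100% = median of positive control wells; one replicate is shown; the record names a cut of 25% in any replicate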
* marks the source's active call; other numbers are inactive results; u = inconclusive; x = no result given.

entry	mol	RanGTP-Imp inh	Beta2AR agonist	Vif A3G	Calb FLC	HNF4A DNA FP	ALR H2O2 inh	LANA-H2A inh
1	Cc1ccc(-n2c(SCC(=O)NCc3ccc4c(c3)OCO4)nnc2-c2cccnc2)c(C)c1	-1.8	1	8%	-2	1.3	x	x
2	COc1ccc(-n2c(SC)nc(O)c(Cc3ccccc3)c2=O)cc1	u	-5	-2%	6	-0.1	7	1.6
3	CN1C(=O)[C@@H]2[C@@H]3C[C@@H]([C@H]4ON=C(c5ccccc5OCC#N)[C@@H]34)[C@@H]2C1=O	0.3	-5	30%	2	1.9	-10	1.3
4	COC(=O)c1ccc(C)c(NC(=O)c2ccc(Cl)c([N+](=O)[O-])c2)c1	u	7	2%	-9	0.1	-7	0.2
5	COc1cccc(NC(=O)Nc2nnc(N3CCCCC3C)s2)c1 (stereo not given)	-3.4	11	9%	0	1.4	0	-2.8
6	CC(=O)c1ccc(NC(=O)Cn2cnc(S(=O)(=O)N3CCc4ccccc43)c2)cc1	-0.2	5	x	6	-2.1	0	2.4
7	Cc1ccccc1NC(=S)Nc1ccc2cn[nH]c2c1	-1.4	3	x	-7	-4.2	-11	5.1
8	COC(=O)c1c(-c2cccs2)csc1NC(=O)CSc1ncnc2sc(C)c(C)c12	-1.3	-5	-23%	57	-0.5	x	0.8

The list goes on:
entry	mol	RanGTP-Imp inh	Beta2AR agonist	Vif A3G	Calb FLC	HNF4A DNA FP	ALR H2O2 inh	LANA-H2A inh
9	CCCc1nc2ccc(N)cc2c(=O)n1Cc1ccccc1Cl	2.5	2	x	7	-1.3	x	-1.7
10	COc1cc(CC(NC(C)=O)C(=O)NC2CCN(C(=O)c3cc(OC)c(OC)c(OC)c3)CC2)cc(OC)c1 (stereo not given)	-3.7	4	x	-6	5.2	5	-7.2
11	C=CCN(CC=C)CC(O)CN(c1cc([N+](=O)[O-])ccc1OC)S(=O)(=O)c1ccccc1 (stereo not given)	u	4	7%	4	16	-3	3.2
12	Cc1cc(=O)oc2cc(OCC(=O)N/N=C/c3ccccc3O)ccc12	3.6	19	-2%	1	2.2	x	8.9
13	COc1ccc(N2CCN(CCNC(=O)CCNS(=O)(=O)c3cccs3)CC2)cc1	1.3	-3	-4%	-5	2.5	93*	-1.3
14	CCC1=C(OC(=O)N(CC)CC)N2C(=O)OC(=NCC3CC3)[C@]2(Cc2ccccc2)[C@H]2C1=CC[C@H]1C(=O)N(CC)C(=O)[C@H]12	-0.5	9	2%	39	-1.0	-3	4.4
15	CCOc1ccc(/C(O)=C2/C(=O)C(=O)N(CCCN3CCOCC3)C2c2ccc(F)cc2)cc1C (stereo not given)	1.9	-2	4%	1	-5.1	1	3.7
16	CCOC(=O)CSc1cn2c(n1)CCC2	1.0	4	13%	3	0.0	28	3.0

Next section; the last 2 above are carried over.
entry	mol	RanGTP-Imp inh	Beta2AR agonist	Vif A3G	Calb FLC	HNF4A DNA FP	ALR H2O2 inh	LANA-H2A inh
15	CCOc1ccc(/C(O)=C2/C(=O)C(=O)N(CCCN3CCOCC3)C2c2ccc(F)cc2)cc1C (stereo not given)	1.9	-2	4%	1	-5.1	1	3.7
16	CCOC(=O)CSc1cn2c(n1)CCC2	1.0	4	13%	3	0.0	28	3.0
17	CCC(C)[C@@H](C(=O)Nc1ccc(OC)c(OC)c1)N1Cc2ccccc2C1=O (stereo not given in full)	0.7	-4	4%	6	-0.4	36	0.0
18	[O-][n+]1ccc(C(O)c2ccccc2)cc1 (stereo not given)	5.3	2	x	4	4.0	x	0.4
19	COc1cccc2c(=O)cc(C)n(CC(=O)Nc3ccc(Br)cc3)c12	6.5	-3	-12%	2	2.2	-2	-6.6
20	O=C1CCC[C@@H]2CC(Nc3ccc(F)cc3F)C[C@@H]3CCN1[C@H]23 (stereo not given in full)	x	1	0%	x	2.3	x	x
21	OC[C@@H]1[C@@H](c2ccc(Cl)cc2)C(c2cccc(Cl)c2)=NN1c1ccccc1	x	18	-7%	x	5.5	x	x
22	c1nc(NCc2ccc3c(c2)OCO3)c2cc(-c3ccoc3)ccc2n1	x	-3	x	x	0.6	-10	-3.8
23	CC(C)(C)c1ccc(OCCCn2ccnc2)cc1	1.9	5	5%	-1	-1.4	-5	0.9
24	CCOC(=O)/C=C/C(=O)OCC(=O)Nc1ccc([N+](=O)[O-])cc1	4.4	6	22%	4	-4.1	x	-0.7

Next entries follow:
entry	mol	RanGTP-Imp inh	Beta2AR agonist	Vif A3G	Calb FLC	HNF4A DNA FP	ALR H2O2 inh	LANA-H2A inh
25	CCCCN(C(=O)Cc1ccc(S(=O)(=O)N2CCOCC2)s1)c1ccccc1	6.3	-4	6%	-1	1.6	-18	2.8
26	CN(CCCC(=O)Nc1ccccc1)S(=O)(=O)c1ccc(Cl)cc1	2.7	6	x	6	3.0	x	1.7
27	O=C(Cc1ccccc1)N1O[C@H]2C=C[C@@H]1CC2	x	-3	3%	x	-0.6	x	x
28	CCCCn1c2ccc(F)cc2c2nnc(SCCN3CCOCC3)nc21	7.5	-8	29%	22	-17	12	-2.5
29	Cc1ccc(S(=O)(=O)N(CC(=O)N/N=C/c2ccccc2C(=O)O)c2cc(Cl)cc(Cl)c2)cc1	1.0	2	-5%	32	-7.7	-2	-0.3
30	CC(NC(=O)c1ccc2ccccc2n1)c1ccc(Br)cc1 (stereo not given)	-1.1	-1	-12%	-5	6.5	0	-7.2
31	COc1ccc(CCNC(=O)CNCC2CCCCC2)cc1OC	3.6	-4	-7%	-9	0.2	5	-1.1
32	CCNc1nc(NCC)nc(N/N=C/c2ccc(N(C)C)cc2)n1	-2.1	-5	x	-2	3.0	99*	65*

New compounds follow
entry	mol	RanGTP-Imp inh	Beta2AR agonist	Vif A3G	Calb FLC	HNF4A DNA FP	ALR H2O2 inh	LANA-H2A inh
33	COc1ccc(NC(=O)Cn2nnc(C(=O)NCCc3ccccc3)c2N)c(OC)c1	3.0	-3	-1%	-7	7.7	-16	0.3
34	CCOC(=O)C(=O)c1c(-c2ccccc2)nc2ccccn12	4.3	-18	-4%	13	-1.1	-5	3.5
35	CCOC(=O)COn1c(-n2nc(C)cc2C)nc2ccccc2c1=O	-0.6	-5	6%	6	4.0	-4	-11
36	CC(C)c1ccc(-c2nn(-c3ccccc3)cc2C2C(C#N)=C(N)OC3=C2C(=O)CC(C)(C)C3)cc1 (stereo not given)	-1.5	5	u	5	2.0	-1	0.5
37	O=C(CCc1nnc2ccc(NCc3ccc(F)cc3)nn12)NC1CCCC1	-1.9	-19	x	-17	-2.9	-3	2.5
38	O=C(O)c1ccc2c(c1)C1C=CCC1C(c1cc3c(cc1Br)OCO3)N2 (stereo not given)	-2.4	5	-3%	5	-20	24	1.1
39	O=C(Nc1cccc(S(=O)(=O)N2CCCC2)c1)C1CCCN1C(=O)c1cccs1 (stereo not given)	-0.8	5	x	2	-2.7	x	11
40	CCc1cccc(C)c1NC(=O)COn1nnc2ccc(C(F)(F)F)cc21	-1.8	-12	-10%	-4	0.3	-2	-3.5

(continued)
entry	mol	RanGTP-Imp inh	Beta2AR agonist	Vif A3G	Calb FLC	HNF4A DNA FP	ALR H2O2 inh	LANA-H2A inh
41	Cc1cccc(NC(=O)c2cc3ccccc3c(=O)o2)n1	3.3	-13	x	1	0.3	15	4.9
42	Cc1cc(Cl)cc2c(N=Nc3ccccc3C(=O)O)c(O)[nH]c12	-2.4	15	5%	-2	2.1	3	1.2
43	COc1ccc(-c2csc3ncnc(N4CCN(C(=O)c5ccco5)CC4)c23)cc1	-0.9	-4	x	2	-0.1	1	0.6
44	CCOc1cc(S(=O)(=O)n2ccc(C)n2)ccc1Br	-2.3	7	x	-25	-2.5	-5	-4.6
45	O=C(CCS(=O)(=O)c1cccs1)NC1CCCCCC1	-4.6	-4	18%	u	-1.6	2	-6.7
46	O=c1cc(CSc2n[nH]c(=O)n2C2CC2)c2ccc(O)cc2o1	4.2	-2	-6%	8	2.9	56	2.5
47	COc1ccc(N(CCCN2C(=O)c3cccc4cccc(c34)C2=O)C(=O)c2cccs2)cc1	2.8	-12	18%	5	0.6	-9	-1.2
48	COc1ccc(/C=N/NC(=O)c2c(C)n(C)c3ccc(OC)cc23)c(OC)c1	-0.5	-3	x	-3	-0.8	-5	-5.0

More structures
entry	mol	RanGTP-Imp inh	Beta2AR agonist	Vif A3G	Calb FLC	HNF4A DNA FP	ALR H2O2 inh	LANA-H2A inh
49	Cc1cccc(C(=O)NCC(=O)OCC(=O)NCCNC(=O)COC(=O)CNC(=O)c2cccc(C)c2)c1	0.0	4	-1%	0	3.5	13	0.6
50	CC(=O)N1c2ccc(Cl)cc2C2OCCC2C1c1ccco1 (stereo not given)	-1.1	-3	-2%	5	-0.3	19	0.2
51	COc1ccc(N2CCN(C(=S)Nc3ccc(C)cc3C)CC2)cc1	-0.4	2	x	-21	-0.5	-1	-0.5
52	CSc1cc(C)c(OCC(=O)Nc2c(C)nn(C)c2C)c(C)c1	0.8	-4	-3%	-9	5.5	x	5.4
53	CCOC(=O)c1ccc(CN(Cc2ccccc2)S(=O)(=O)c2cccc([N+](=O)[O-])c2)cc1	-0.7	-10	2%	-10	-1.3	-7	-1.8
54	Cc1cccc(NS(=O)(=O)c2cccs2)c1	5.0	1	4%	19	-2.1	x	4.4
55	c1ccc2c(c1)OCC(c1nnc3sc(-c4ccc5c(c4)OCO5)nn13)O2 (stereo not given)	-2.0	-6	-2%	-5	4.6	-12	-1.1
56	Cc1csc(CN(C)C(=O)CC2C(=O)NCCN2Cc2ccc(F)cc2Cl)n1 (stereo not given)	1.2	24	x	4	-1.2	-8	-4.0

More records follow:
entry	mol	RanGTP-Imp inh	Beta2AR agonist	Vif A3G	Calb FLC	HNF4A DNA FP	ALR H2O2 inh	LANA-H2A inh
57	Cc1cnc(NC(=O)c2cc3c(C)nn(-c4ccccc4)c3s2)s1	-3.4	13	-17%	16	3.2	0	1.5
58	N#Cc1ccccc1OCC(=O)OCC(=O)N1CCN(C(=O)c2ccco2)CC1	3.1	0	-1%	4	-3.7	6	-2.7
59	N#CCCN(C(=S)NC(=O)c1cccs1)c1ccccc1F	x	1	1%	x	-1.1	x	x
60	CC(=O)CCC(=O)OCC(=O)Nc1ccc(SC(F)F)cc1	-0.8	6	x	-10	-4.9	x	3.4
61	Cc1cccc2sc(NC(=O)[C@@H]3CCCN3C(=O)c3cccs3)nc12	0.1	0	x	-18	-1.7	1	-1.4
62	CC1=CC(=C(C#N)c2nc3ccccc3s2)C=C(C)N1c1ccc(F)cc1F	-32	6	x	5	-34	x	x
63	CC(C)(C)c1cc(C(=O)N/N=C/c2ccc(F)cc2)n(-c2ccccc2)n1	-3.5	17	18%	-4	1.3	-3	-5.4
64	NS(=O)(=O)c1ccc(NC(=O)c2c(Cl)cccc2Cl)cc1	3.2	2	7%	-4	-0.5	0	0.0

Next records follow:
entry	mol	RanGTP-Imp inh	Beta2AR agonist	Vif A3G	Calb FLC	HNF4A DNA FP	ALR H2O2 inh	LANA-H2A inh
65	O=C(CN1C(=O)NC2(CCCCC2)C1=O)N1CCN(S(=O)(=O)c2cccc(F)c2)CC1	-1.2	-11	1%	-4	-0.3	-15	-3.1
66	C[C@@H](NC(=O)Cn1ccc(N)nc1=O)c1cccc2ccccc12	x	7	x	x	6.9	-4	0.4
67	CC(=O)Oc1ccc(Oc2ccc(-c3noc(C)n3)cc2)cc1	4.1	-9	33%	-1	3.4	6	1.1
68	O=C(NN1CC(=O)N(c2cc(Cl)cc(Cl)c2)CC1=O)c1cccs1	-1.0	-2	-5%	-3	4.7	x	17
